# Source: PubChem BioAssay
# TAR Tat displ: HIV-1 TAR-Tat binding disruption; HIV-1 TAR RNA, Tat peptide displacement FRET; active compounds read high; z-score (concentration not given with the values); hit rate 0.6% among 100,000; AID 1259389;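 further: score is relative to mean and SD of negative controls; some compounds called inactive have numbers as strong as hits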
# CDC25B-CDK2 inh: human CDC25B-CDK2/CyclinA binding inhibition. P30305+P24941. HTRF CDC25B-CDK2/CyclinA binding, anti-His/anti-Flag; active compounds read high. z-score (concentration not given with the values). hit rate 0.72% among 94,000. AID 1259370;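 further: score is relative to mean and SD of negative controls; strong numbers were not always called active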
# * hit, by the source's call; . = not tested or not shown.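 How the source made its calls: active means z-score from 3 up in half or more of its runs; inactive means the rest.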 Hits appear at their usual frequency. About 0.97% of those tested had a hit in this group.
SMILES,TAR Tat displ,CDC25B-CDK2 inh
Cc1ccc(-c2nc(CSc3nnc(C)n4c3cc3oc(C)cc34)c(C)o2)cc1,1.71,.
CC(=O)N1N=C(c2ccc(C)cc2)CC1c1cc2cc3c(cc2nc1Cl)OCO3 (stereo not drawn),.,-1.37
Cc1cc(OCc2noc(-c3cccnc3)n2)ccc1Cl,-0.56,-0.75
Cc1ccc(-c2onc3ccc(C(=O)N4CCc5ccccc54)cc23)cc1,1.53,.
Cc1nc(-c2ccc(C)c(S(=O)(=O)Nc3ccccc3Cl)c2)cs1,1.56,.
COc1ccc(C(=O)Oc2ccc3c(C(F)(F)F)cc(=O)oc3c2C)cc1OC,.,1.48
CC1=C(c2ccccc2)S(=O)(=O)N=C1N1CCc2ccccc2C1,1.01,0.3
Cc1cc(-c2ccc(S(=O)(=O)NC3CCC(C)CC3)cc2)on1 (stereo not drawn),-5.65,.
CC(=O)N1c2ccccc2CC1C(=O)NCCC1=CCCCC1 (stereo not drawn),1.21,.
COc1cc(C2C3=C(CCCC3=O)Nc3nc(SCc4ccccc4F)[nH]c(=O)c32)ccc1O (stereo not drawn),-1.96,0.37
O=c1cc2nc(-c3ccccc3)nc(SCc3ccccc3)n2[nH]1,0.04,.
Cc1c(C)n(C(=O)CSc2nnc(-c3ccccc3)o2)c2ccccc12,-0.14,-1.18
O=c1c2nccnc2nc(SCc2cccc(F)c2)n1CCc1c[nH]c2ccccc12,1.9,-0.73
Cn1ncc2c(NCc3ccccc3Cl)nc(N3CCOCC3)nc21,0.81,.
CCCCOC(=O)c1cc(=O)[nH]c(=O)[nH]1,-1.02,-0.84
Cc1c(-c2ccc(F)cc2)nc(N)c(C#N)c1-c1cccs1,-0.06,-1.34
OC(CN1CCN(c2ccccc2)CC1)c1c[nH]c2ccc(F)cc12 (stereo not drawn),-1.44,-2.43
CCN(CC)C(=O)N1c2ccccc2C=Cc2ccccc21,-0.33,-0.78
O=C(NCCCN1CCc2ccccc2C1)C1CCN(c2ncnc3c2nc2n3CCCCC2)CC1,0.67,.
COc1ccc(CN2CN(C(C)(C)C)CSC2=S)cc1,0.71,-0.61
CCCCn1c(=O)c2c(nc3n2CCN3c2ccc(Cl)cc2)n(C)c1=O,2.06,.
CCOC(=O)c1c(C)[nH]c(NC(=O)Nc2ccc(N(C)C)cc2)c1C,0.88,-0.7
COC(=O)c1cc(-c2c(C)nn(-c3ccccc3)c2C)n[nH]1,-0.45,1.07
CCCCSc1nc2n(n1)C(c1cccc(Br)c1)C1=C(CCCC1=O)N2 (stereo not drawn),1.65,0.96
COc1ccc(Cl)cc1N(C)C(=O)C1CCCN(c2ncnc3c2nc2n3CCCCC2)C1 (stereo not drawn),0.04,.
Cc1c(C(=O)NCCN(C)C)oc2ccc(S(=O)(=O)N3CCCCCC3)cc12,.,-0.58
Cc1ccc(C2=NC(c3ccccc3)=Nc3ccc(F)cc3N2)o1,-1.18,-3.02
COc1cc(-c2cc(C(=O)O)c3c(-c4ccc(Cl)cc4)[nH]nc3n2)ccc1O,3.33,.
CCOc1ccc(S(=O)(=O)[C@H]2CS(=O)(=O)C[C@@H]2NCc2ccco2)cc1,-1.45,-1.65
OCc1ccc(-c2cc(C(F)(F)F)cc(C(F)(F)F)c2)o1,.,-2.63
O=C1CC(c2cccc(Cl)c2)Cc2nc3nc(C(F)(F)F)nn3cc21 (stereo not drawn),-6.54,0
Cc1cccc(NC(c2ccc(O)cc2)c2ccc3ccc(C)nc3c2O)n1 (stereo not drawn),0.85,0.33
COC(=O)c1ccc(C(=O)OCCCc2nc3ccc(N)cc3[nH]2)cc1,1.41,-2.93
O=C1CC(N2CCN(Cc3ccc4c(c3)OCO4)CC2)C(=O)N1c1ccccc1 (stereo not drawn),0.67,-1.45
O=C(c1cn(CCOc2ccc(Cl)cc2)c2ccccc12)C1CC1,0.57,-1.11
COc1ccccc1N1CCN(c2c(S(=O)(=O)c3ccccc3)cnc3ccccc23)CC1,-0.63,-1.33
O=C1C=C(NNc2ccccc2)CCC1,.,0.49
Cc1ccc(OCCSc2nc3ccccc3n2CCO)cc1,-0.42,-1.62
O=S(=O)(Nc1ccc(Cl)cc1)c1ccc(-c2cc(C(F)(F)F)on2)s1,.,-0.21
Cc1ccc(S(=O)(=O)NCCC(c2ccc(F)cc2)c2ccco2)cc1 (stereo not drawn),2.72,-1.1
O=C(CC(=O)Nc1ccccc1F)Nc1ccc2nc3n(c(=O)c2c1)CCCCC3,.,-3.13
CSc1n[nH]c(=O)n1-c1cccc(C(F)(F)F)c1,.,-0.1
O=C(Nc1ccc(Br)cc1F)Nc1c[nH]c(=O)[nH]c1=O,0.4,.
CCC(C(=O)NC1CCCC1)n1c(C(=O)OC)cc2ccsc21 (stereo not drawn),.,-0.73
CC1CCN(c2ncnc3c2oc2nc4c(cc23)COC(C)(C)C4)CC1,0.26,.
S=C(NCc1csc2ccccc12)Nc1ccc2c(c1)OCO2,.,-1.67
CCOc1ccc(C2C(C#N)=C3N=C(N)c4ccccc4N3C3=C2C(=O)CCC3)cc1 (stereo not drawn),-2.6,0.65
Cc1cc2c3c(C)n(C4CCCCC4)c(C)c3c(C)nn2c1,.,0.79
CSc1nc(-c2ccccc2)nc2c1Cc1ccccc1O2,-0.28,-0.63
C=CCn1c(=O)n(Cc2ccccc2)c(=O)c2c3c(sc21)COC(C)(C)C3,1.52,-0.98
# Next part:
SMILES,TAR Tat displ,CDC25B-CDK2 inh
CC(C)C1N=C2c3ccccc3N=C(SCC(=O)Nc3ccccc3Cl)N2C1=O (stereo not drawn),0.88,.
O=C(Cn1cc(S(=O)(=O)Cc2ccc(F)cc2)c2ccccc21)N1CCCC1,1,.
COc1cccc(-c2nnc(SCC(=O)Oc3ccccc3)o2)c1,-0.9,-4.55
Cc1nc(C)c(CCNS(=O)(=O)c2ccc(C)c(C)c2)s1,1.28,.
Clc1ccc(-c2noc(CCCCc3nc4ccccc4[nH]3)n2)cc1,1.52,-0.14
CCOC(=O)C(NC(=O)c1cccnc1)(Nc1ccccc1)C(F)(F)F (stereo not drawn),.,-0.74
CCN1C(C(=O)OC)=C(OC(=O)COc2ccc3ccccc3c2)c2ccccc2S1(=O)=O,-0.5,-0.72
COC(=O)C1=C(O)C2(C(=O)O)CC(C(=O)OC)=C(O)C(C(=O)O)(C1)C2,.,-0.94
COc1ccccc1CNc1ncccc1-c1nc(-c2ccccc2)no1,-0.07,-1.07
COc1ccc(OC)c(C2C(C#N)=C(N)OC3=C2C(=O)CC(c2ccccc2)C3)c1 (stereo not drawn),.,-0.19
COc1cc2c(cc1OC)n(CC(=O)NCc1ccco1)n1c(C)cc(=O)nc21,1.8,0.65
O=c1c(S(=O)(=O)c2ccccc2)cn(Cc2cccc(F)c2)c2cc(N3CCCC3)c(F)cc12,0.67,.
C(=N\Nc1nc2ccccc2s1)/c1ccco1,.,-1.16
N#Cc1ccc(-c2cccnc2)nc1SCC(=O)O,1.61,0.48
Cc1nc(N(C)C)cc(N2CCN(C(=O)C3CCCCC3)CC2)n1,-0.37,-0.67
CCc1ccc(-c2cc(C)no2)cc1S(=O)(=O)N(CCN1CCOCC1)Cc1ccco1,-0.58,.
CCOC(=O)c1oc2cc(C)cc(C)c2c1C,.,-0.87
Cc1ccc(Nc2nc(N3CCCC(C)C3)nc(N)c2[N+](=O)[O-])cc1 (stereo not drawn),2.95,.
O=c1ccc(-c2ccc(S(=O)(=O)Nc3cccc(F)c3)o2)n[nH]1,1.55,.
CC1Sc2ccc(Cl)cc2-c2nc(-n3cccc3)ncc21 (stereo not drawn),.,-0.28
O=C(Cn1cnc(S(=O)(=O)N2CCCC2)c1)N1CCc2ccccc21,1.64,.
CC(C)(C(=O)Oc1ccccc1)S(=O)(=O)c1ccc(C(F)(F)F)cn1,.,-1.23
O=S(=O)(CCN(Cc1ccc(F)cc1)S(=O)(=O)c1ccc(Cl)cc1)N1CCNCC1,2.55,.
COc1ccccc1N1C(=O)N(c2ccc(Cl)cc2)C2CS(=O)(=O)CC21 (stereo not drawn),1.22,-1.2
CCC[C@H]1CC2=C(C[C@@H](CC)CC3=C1C(=O)OC3=O)C(=O)OC2=O,-1.35,.
Cn1nc(-c2ccccc2)c(-c2ccccc2)c(C(=O)Nc2ccc3c(c2)OCCO3)c1=O,1.45,-1.45
CN(CC(=O)N1CCN(c2ccccc2)CC1)S(=O)(=O)c1cnc[nH]1,0.48,-1.19
COc1ccc(N(C)C(=O)c2cc3c(s2)-c2ccccc2S(=O)(=O)C3)c(OC)c1,1.15,-2.97
COc1ccccc1NC(=O)CN(C1=NC2CS(=O)(=O)CC2S1)c1ccc(Cl)cc1 (stereo not drawn),0.54,-1.94
CC12CCC3c4ccc(OC(=O)c5ccccc5)cc4CCC3C1CCC2O (stereo not drawn),1.88,.
COc1ccc(NC(=O)C2=Cc3cc(Cl)ccc3OC=C2)cc1,0.56,-1.1
O=C(c1cc2c(s1)-c1ccccc1OC2)N1CCCC1,1.24,-0.89
COc1ccc(-c2csc3ncnc(Nc4ccc(OC)cc4OC)c23)cc1,0.96,.
Cc1cc(N2CCN(c3ccccc3F)CC2)n2ncnc2n1,.,-1.3
COc1cccc([C@@H]2Nc3ccc(S(=O)(=O)Nc4ccccc4)cc3[C@@H]3C=CC[C@@H]32)c1,.,-1.16
O=C1CSCC(=O)N1Cc1ccncc1,.,0.41
O=c1[nH]c(=O)n(-c2ccccc2)c2c1CN(Cc1ccco1)CN2,1.17,-2.19
CCCCC(=O)NCc1csc(C)n1,1.6,-1.09
CCc1nc(-c2ccc(OC)cc2)cc2cc(OC)c(OC)cc12,2.15,1.33
O=C1c2[nH]nc(-c3ccccc3O)c2C(c2ccc(Cl)cc2)N1Cc1ccncc1 (stereo not drawn),-0.28,0.63

# The closing 2 records of the part above come first, to join the parts:
SMILES,TAR Tat displ,CDC25B-CDK2 inh
CCc1nc(-c2ccc(OC)cc2)cc2cc(OC)c(OC)cc12,2.15,1.33
O=C1c2[nH]nc(-c3ccccc3O)c2C(c2ccc(Cl)cc2)N1Cc1ccncc1 (stereo not drawn),-0.28,0.63
Cc1ccc(S(=O)(=O)Nc2ccc(-c3cn4cccc(C)c4n3)cc2)c(C)c1,3.66,1.08
O=C(Nc1nccs1)c1c(-c2ccccc2)c(-c2ccccc2)n[nH]c1=O,0.45,-0.32
COCCCNC(=O)Nc1cn(CC(C)C)c(=O)c2ccccc12,1.58,.
CCCC(=O)Nc1nn2c(CCC)nnc2s1,0.73,-1.46
COCCCNC(=O)C(C)N1C(=O)CCn2nc(C)cc21 (stereo not drawn),3.2,.
COC(=O)c1cc(NC(=O)c2cc3c(s2)-c2ccccc2S(=O)(=O)C3)cc(C(=O)OC)c1,0.24,-1.29
O=C1c2oc3ccccc3c(=O)c2C(c2ccccc2F)N1c1nncs1 (stereo not drawn),0.47,-0.19
Cn1c(=O)c2c(-c3ccc(F)cc3)c(Nc3ccccc3)oc2n(C)c1=O,1.26,.
O=C(CSc1nccn(-c2ccc(Cl)cc2)c1=O)Nc1ccc(F)cc1F,0.67,.
Cn1c(Cn2c(=O)sc3ccccc32)nnc1SCC(=O)NCc1ccccc1,.,-2.97
Cc1ccc(N2C(=O)CC(Sc3ccccc3C(=O)O)C2=O)cc1Cl (stereo not drawn),.,-2.04
CN1c2ccccc2N(C)C1c1ccc(Cl)cc1,.,0.6
Nc1cccc(-c2nc3ccc(-c4ccc5nc(-c6cccc(N)c6)[nH]c5c4)cc3[nH]2)c1,.,0.96
C[C@]12CCC3c4ccc(O)cc4CCC3C1CC[C@@H]2OC(=O)CCC1CCCC1 (stereo partly drawn),0.12,.
COc1ccc(N2C(=O)c3c(C)nc4ccccc4c3C2=O)c(OC)c1,1.14,-0.13
Cc1nc2ccc(NC(=O)c3ccccc3C(F)(F)F)cc2o1,.,1.34
COc1ccc(-c2onc(C)c2C)cc1S(=O)(=O)N(C)CC1COc2ccccc2O1 (stereo not drawn),2.15,.
CN(C(=O)c1cc2c(s1)-c1ccccc1S(=O)(=O)C2)c1ccccc1Cl,-0.36,-3.07
CC(Nc1ncnc2c1cnn2-c1cccc(Cl)c1)c1ccccc1 (stereo not drawn),0.85,.
Cc1cc(Cl)ccc1NC(=O)C1=CSCCO1,2.07,-2.25
Cc1ccc(-n2ncc3c(N4CCN(c5ccccc5)CC4)ncnc32)cc1C,0.85,.
Cc1ccc(C)c(-n2cc[nH]c(=O)c2=O)c1,2.52,-1.95
Cn1c(=O)sc2cc(NC(=O)C(C)(C)C)ccc21,-1.06,.
O=C1c2ccccc2C(=O)N1CN1CCN(C(c2ccccc2)c2ccccc2)CC1,.,-0.87

# Structures shown so far containing an aryl thioether with sulfur outside any ring, in the order listed:
SMILES,TAR Tat displ,CDC25B-CDK2 inh
Cc1ccc(-c2nc(CSc3nnc(C)n4c3cc3oc(C)cc34)c(C)o2)cc1,1.71,.
COc1cc(C2C3=C(CCCC3=O)Nc3nc(SCc4ccccc4F)[nH]c(=O)c32)ccc1O (stereo not drawn),-1.96,0.37
O=c1cc2nc(-c3ccccc3)nc(SCc3ccccc3)n2[nH]1,0.04,.
Cc1c(C)n(C(=O)CSc2nnc(-c3ccccc3)o2)c2ccccc12,-0.14,-1.18
O=c1c2nccnc2nc(SCc2cccc(F)c2)n1CCc1c[nH]c2ccccc12,1.9,-0.73
CCCCSc1nc2n(n1)C(c1cccc(Br)c1)C1=C(CCCC1=O)N2 (stereo not drawn),1.65,0.96
Cc1ccc(OCCSc2nc3ccccc3n2CCO)cc1,-0.42,-1.62
CSc1n[nH]c(=O)n1-c1cccc(C(F)(F)F)c1,.,-0.1
CSc1nc(-c2ccccc2)nc2c1Cc1ccccc1O2,-0.28,-0.63
COc1cccc(-c2nnc(SCC(=O)Oc3ccccc3)o2)c1,-0.9,-4.55
N#Cc1ccc(-c2cccnc2)nc1SCC(=O)O,1.61,0.48
O=C(CSc1nccn(-c2ccc(Cl)cc2)c1=O)Nc1ccc(F)cc1F,0.67,.
Cn1c(Cn2c(=O)sc3ccccc32)nnc1SCC(=O)NCc1ccccc1,.,-2.97
Cc1ccc(N2C(=O)CC(Sc3ccccc3C(=O)O)C2=O)cc1Cl (stereo not drawn),.,-2.04
